VACV Venus inh: qHTS for Stage-Specific Inhibitors of Vaccinia Orthopoxvirus: Venus Reporter Primary qHTS | Potency, µM (series often up to 36.5 µM), for the others: at the highest dose activity change, negative = inhibition, hits mostly inhibitors | 330,000 tested, 0.46% active | Vaccinia virus Venus reporter expression, fluorescence; active means well fitted inhibition curve with a large enough effect; inconclusive means small, poorly fitted or top-dose-only effect; inactive means no such curve, though single readings can be large or run the other way; tested in A549 cells; note: nearly all actives have a fitted effect of over 30% in size; inactives centre near -10
Vaccinia mCherry: qHTS for Stage-Specific Inhibitors of Vaccinia Orthopoxvirus: mCherry Reporter Primary qHTS | Vaccinia virus mCherry reporter infection, fluorescence; about a quarter of the inactives have no number | Potency, µM (top dose mostly 36.5 µM), for the others: at the top dose activity change, negative = inhibition, usual class: inhibitors | 310,000 tested, 0.63% active | AID 720579, 2013; active = well fitted inhibition curve with a large enough effect; inconclusive = small, poorly fitted or top-dose-only effect; inactive = no such curve, though single readings can be large or run the other way; tested in A549 cells; note: nearly all actives have a fitted effect of over 35% in size; inactives centre near -10
An asterisk follows results filed as active; i = inactive; ? = inconclusive; / = no result given; & = joins results of further samples; [ ] = dose if it differs, or a comment. % is set by controls: 0 for no effect and ±100 for the full control effect; potency is the fitted concentration of half-maximal effect.

SMILES	VACV Venus inh	Vaccinia mCherry
CCOC1(/N=C(\C)NS(=O)(=O)c2ccc(Cl)cc2)C(C)=CC(=O)C=C1C	-4%	5%
CCOc1ccc(NC(=O)CSc2nc(O)c(C)c(=O)n2-c2ccc(F)cc2)cc1	3%	-7%
O=S1(=O)CCC(n2nccc2-c2ccccc2)C1 (stereo not drawn)	-1%	i
COCCn1cnc2c(c1=O)c1nc3ccccc3nc1n2/N=C/c1cccc(OC)c1	-8%	0%
Brc1cccc(CN2CCCCCCC2)c1	-2%	-10%
CCOc1ccc(NC(=O)Cn2nnc(-c3ccccc3F)n2)cc1	-10%	i
COc1ccc(C(F)(F)F)cc1N/C=C/c1nnnn1-c1ccc2ccccc2c1	2%	-4%
COc1ccc(CNC(=O)c2ccc(Br)o2)cc1	-5%	i
Cc1ncc2c(c1CNC(=O)/C=C/c1cccs1)CCN(C(=O)C1CC(=O)OC13CCCCC3)C2 (stereo not drawn)	9%	-13%
O=C(Nc1cccc(O)c1)c1noc2c1CCc1ccccc1-2	-8%&-25%	-29%&-27%
CN(C)CCNC(=O)c1cccc(-c2cccc3nncn23)c1	-6%	-6%
O=S(=O)(c1cc(C(F)(F)F)ccc1Cl)N1CCN(c2ncnc3ccccc23)CC1	?	i
Cc1noc(C)c1-c1nc(N2CCOCC2)c2ccccc2n1	0%	-8%
CCN1CCCC1CNC(=O)Cn1ncc2c(=O)oc3ccc(C)cc3c21 (stereo not drawn)	14%	10%
COC(=O)CCn1cnc2onc(-c3cc(F)cc(F)c3)c2c1=O	4%	0%
COc1ccc(C)cc1NC(=O)CN(C)S(=O)(=O)c1cnc[nH]1	-14%	-15%
CC(=O)N1CCc2cc(S(=O)(=O)CCC(=O)N3CCN(c4ccccn4)CC3)ccc21	-6%	-9%
CC(C)CN(C1CCS(=O)(=O)C1)S(=O)(=O)c1ccc(C(C)C)cc1 (stereo not drawn)	-5%	-26%
Cc1ccc(-c2csc(N3CCN(CCCn4c(-c5ccncc5)nc5ccccc54)CC3)n2)cc1	?	10µM*
C=CCC1(O)C(=O)Nc2ccccc21 (stereo not drawn)	2%	/
CN(C)c1nc(N)nc(CSc2nnnn2C)n1	-12%	/
CC(=O)Nc1ccc(NCC(=O)c2ccccc2)cc1	-14%	-10%
C=CCN(c1ccccc1OC)S(=O)(=O)c1cccc(C(=O)NC2=NCCS2)c1	-15%	-1%
CCC(CC)C1C(C#N)=C(N)Oc2n[nH]c(C)c21 (stereo not drawn)	-28%	-12%
O=C(COc1ccccc1)NCC(=O)N/N=C/c1ccco1	-14%	i
CC(C)OC(=O)CN1C(=O)S/C(=C/c2ccc(N3CCCCC3)o2)C1=O	117%[activator]	-9%
OC12Oc3ccccc3C=C1N1CCC2CC1 (stereo not drawn)	0%	/
COc1cccc(C(NC(C)=O)c2nc(/C=C/c3ccccc3)cs2)c1 (stereo not drawn)	-3%	-14%
C#CCN(C(=O)c1ccc(OC)c(OC2CCN(C(C)C)CC2)c1)C1CCCCC1	-11%	-21%
Clc1ccc(-c2csc3ncnc(Sc4nnnn4-c4ccccc4)c23)cc1	?	10µM*

Laid out differently: results already given
> COc1ccc(C)cc1NC(=O)CN(C)S(=O)(=O)c1cnc[nH]1
  VACV Venus inh = -14%	Vaccinia mCherry = -15%

> CC(=O)N1CCc2cc(S(=O)(=O)CCC(=O)N3CCN(c4ccccn4)CC3)ccc21
  VACV Venus inh = -6%	Vaccinia mCherry = -9%

> CC(C)CN(C1CCS(=O)(=O)C1)S(=O)(=O)c1ccc(C(C)C)cc1 (stereo not drawn)
  VACV Venus inh = -5%	Vaccinia mCherry = -26%

> Cc1ccc(-c2csc(N3CCN(CCCn4c(-c5ccncc5)nc5ccccc54)CC3)n2)cc1
  VACV Venus inh = ?	Vaccinia mCherry = 10µM*

Next compounds follow.
SMILES	VACV Venus inh	Vaccinia mCherry
CC(C)CSc1nc2ccccc2n1CC(N)=O	-5%	-19%
Cc1cccc(C)c1Cn1c(C)c(C(=O)NCc2ccc(C#N)cc2)sc1=O	-19%	-12%
CCOCCc1nnc(NC(=O)CSc2ccccc2)s1	-8%	-20%
COCCNC(=O)C(OC(=O)c1ccco1)c1ccccc1F (stereo not drawn)	-12%	-13%
Clc1ccc(CSc2nncn3c2cc2occc23)cc1	-8%	-1%
CC(C)(C)N(Cc1nc(-c2ccccc2)no1)C(=O)c1ccc2c(c1)OCO2	-11%	-17%
O=C(O)C1C2C=CC(C2)C1C(=O)N1CCc2ccccc21 (stereo not drawn)	-7%	-14%
Cc1ccc(S(=O)(=O)N2[C@@H](c3cccc(Cl)c3)C(C(=O)OC(C)(C)C)=CC[C@H]2c2ccc(C(C)C)cc2)cc1	-1%	22%
COc1ccc(NS(=O)(=O)c2ccc3nc(COc4ccc(C#N)cc4)[nH]c3c2)cc1	-15%	-13%
O=C(CSc1nc2ccccc2o1)NCC(=O)c1ccccc1	0%	/
CCOC(=O)C1CCN(C2CC(=O)N(c3ccc(OCC)cc3)C2=O)CC1 (stereo not drawn)	7%	0%
CC1C(=O)N(Cc2cn(Cc3ccco3)nn2)CCS(=O)(=O)N1Cc1ccc(-c2ccc(F)cc2Cl)cc1 (stereo not drawn)	-12%	-4%
COc1ccccc1CNC(=O)c1cc2cccc3c2n1CCS3	-1%	-3%
CC1=C(C(=O)N2CCCCCC2)CC(CC(=O)NC2CCCC2)C(=O)N1Cc1ccccc1 (stereo not drawn)	7%	i
Nc1nc2c(ncn2C2CC(O)C(CO)O2)c(=O)[nH]1 (stereo not drawn)	-2%	-14%

One compound at a time, from the list above:
CCOC(=O)C1CCN(C2CC(=O)N(c3ccc(OCC)cc3)C2=O)CC1 (stereo not drawn) in the list: VACV Venus inh = 7%; Vaccinia mCherry = 0%
CC(C)(C)N(Cc1nc(-c2ccccc2)no1)C(=O)c1ccc2c(c1)OCO2 in the list: VACV Venus inh = -11%; Vaccinia mCherry = -17%
CCOCCc1nnc(NC(=O)CSc2ccccc2)s1 in the list: VACV Venus inh = -8%; Vaccinia mCherry = -20%

(further entries)
SMILES	VACV Venus inh	Vaccinia mCherry
CCOc1ccc(CCNC(=O)C2CCN(C(=O)N3CC(CC)Oc4ccccc43)CC2)cc1 (stereo not drawn)	-17%	-8%
COc1ccc(-c2nc(SCCOc3ccccc3Cl)n3[nH]c(=O)cc3n2)cc1	0%	-7%
COc1ccc(S(=O)(=O)N2CCC(C(=O)N[C@@H](C)C(=O)N3CCCC3)CC2)cc1	-4%	i
Cc1n[nH]c(C)c1Sc1ccccc1N	-5%	-9%
Cc1ccc(C(=O)N2CCOCC2)cc1S(=O)(=O)N1CCCCC1	-18%	i
Brc1ccc(N=Cc2ccccn2)cc1	-10%	-4%
COc1cccc(C2=NOC(C(=O)NCc3ccc(F)cc3)C2)c1 (stereo not drawn)	-16%	-19%
COc1ccccc1C(=O)NC(=O)COC(=O)c1ccc([N+](=O)[O-])cc1	-10%	-13%
COCc1ccc(O)c2ncccc12	?	/
CC(C)c1ncc(C(O)c2cccc3ccccc23)n1C (stereo not drawn)	-13%	/
CCOC(=O)CCn1cnc2onc(-c3ccccc3Cl)c2c1=O	-5%	-12%
CC(C)(C)OC(=O)NCCCCc1cn(CC(=O)N2CCN(C(=O)OC(C)(C)C)CC2)nn1	-10%	-22%
C1CC1C(=NN=C(C1CC1)C1CC1)C1CC1	-11%	-11%
COc1ccc(C(=O)COC(=O)CCS(=O)(=O)c2ccc(C)cc2)c(OC)c1	-4%	-14%
CCC1=C(OC(=O)N(CC)CC)N2C(=O)OC(=NCCc3c[nH]c4ccccc34)[C@]2(Cc2ccccc2)[C@H]2C1=CC[C@H]1C(=O)N(CC)C(=O)[C@H]12	-22%	-7%
COCCCN1C(=O)C(=O)/C(=C(/O)c2ccc(S(=O)(=O)N3CCCCC3)cc2)C1c1ccc(O)c(OC)c1 (stereo not drawn)	-11%	i
COc1ccc(CC(=O)OC(C)C(=O)c2ccc(C)cc2)cc1 (stereo not drawn)	-17%	-13%
CN(C)N1C(=O)/C(=C/c2ccco2)SC1=Nc1ccccc1	-14%	-18%
CCOC(=O)c1[nH]c(C)c(C(=O)OCC(=O)N2CC(=O)Nc3ccccc32)c1C	-22%	-30%
COc1ccc2cc3cc(C(=O)NCc4ccccc4OC)oc3nc2c1	-6%	-15%
Cc1ccccc1NC(=O)CCNS(=O)(=O)c1cccc2nsnc12	-7%	-26%
CN(CCNC(=O)c1cn(C)c2ccc(S(=O)(=O)N3CCCC3)cc2c1=O)CCc1ccccc1	-5%	-1%
COc1ccc(CCN2C(=O)CN(C3CCC(C)CC3)C(=O)C2c2ccc(OC(C)C)c(OC)c2)cc1OC (stereo not drawn)	-2%	-13%
CN(C)S(=O)(=O)c1ccc(C(=O)OCc2ccc(C#N)cc2)cc1	-15%	/
CCOc1ccc(Oc2nc(NCC(C)C)nc(NC(C)(C)C)n2)nn1	-8%	-11%
Cc1cc(CN2CCN(CC(=O)Nc3cc(C(F)(F)F)ccc3-n3cncn3)CC2)no1	-8%	17%
CCCCC[C@H](O)CC[C@H]1[C@H](O)CC(=O)[C@@H]1CCCCCCC(=O)O	-5%[3.33 µM]	-11%[3.33 µM]
O=C1[C@@H]2CSC(c3ccc(Cl)cc3)N2C(=O)N1c1ccccc1 (stereo partly drawn)	-9%	-7%
O=C(NCc1cccnc1)c1sc2cc(Cl)ccc2c1Cl	-10%	i
O=C(Nc1cccc2c1CCCC2)c1cc(C2CCCCN2C(=O)c2cccs2)on1 (stereo not drawn)	-24%	-18%
COc1ccccc1-c1ccc(=O)n(CC(=O)NC2CCc3ccccc32)n1 (stereo not drawn)	-12%	-14%
CC(C)Sc1ncc(Cl)c(C(=O)Nc2nnc(C(C)C)s2)n1	2%	-5%
CCOc1ccc(CCNC(=O)CN2CCN(Cc3ccccc3F)C2=O)cc1OCC	-20%	-23%
CCn1c(SC)nnc1C1CCCN(CC(=O)Nc2ccccc2N2CCOCC2)C1 (stereo not drawn)	5%	-14%
CN(C)S(=O)(=O)c1cccc(C(=O)OCC(=O)c2c(N)n(C)c(=O)n(C)c2=O)c1	-2%	-6%
Cc1ccc(C(=O)ONc2ccc(N=NC(=O)c3ccccc3O)cc2)cc1	-14%	-15%
CC1CN(C)C(C)CC1NCc1ccc2c(c1)OCO2 (stereo not drawn)	-7%	-15%
Cc1ccccc1S(=O)(=O)Cc1ccc(C(=O)NC(C)c2ccccc2)o1 (stereo not drawn)	-17%	-20%
CC1Cc2ccccc2N1C(=O)/C=C/c1cccc(F)c1 (stereo not drawn)	-7%	-12%
Cc1cc(C)c2nc(N3CCCC(C(=O)NCc4cccc(Br)c4)C3)sc2c1 (stereo not drawn)	-9%	2%

High-throughput results: PubChem, National Center for Advancing Translational Sciences (NCATS)

Not a hit list; overall some 0.82% were active at least once.
